PABP FP inh: PABP poly(A) RNA binding inhibitors, primary screen, biochemical, fluorescence polarization, uHTS | inhibition, % at 35 µM | 290,000 compounds, 1% hits;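 active = 50% or more with normal probe brightness, or confirmed in later tests; inconclusive = above 50% with abnormal brightness, or retests that disagree; inactive = below 50% or failed in later tests; about a fifth of its hits are not listed in these tables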;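 also: calls also rest on retests at 20 µM and on dose response follow-up; controls were probe without protein and protein plus probe with vehicle; some compounds called inactive have numbers as strong as hits; many hits fall short of the cut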
Target sequence (P11940 whole entry, looked up): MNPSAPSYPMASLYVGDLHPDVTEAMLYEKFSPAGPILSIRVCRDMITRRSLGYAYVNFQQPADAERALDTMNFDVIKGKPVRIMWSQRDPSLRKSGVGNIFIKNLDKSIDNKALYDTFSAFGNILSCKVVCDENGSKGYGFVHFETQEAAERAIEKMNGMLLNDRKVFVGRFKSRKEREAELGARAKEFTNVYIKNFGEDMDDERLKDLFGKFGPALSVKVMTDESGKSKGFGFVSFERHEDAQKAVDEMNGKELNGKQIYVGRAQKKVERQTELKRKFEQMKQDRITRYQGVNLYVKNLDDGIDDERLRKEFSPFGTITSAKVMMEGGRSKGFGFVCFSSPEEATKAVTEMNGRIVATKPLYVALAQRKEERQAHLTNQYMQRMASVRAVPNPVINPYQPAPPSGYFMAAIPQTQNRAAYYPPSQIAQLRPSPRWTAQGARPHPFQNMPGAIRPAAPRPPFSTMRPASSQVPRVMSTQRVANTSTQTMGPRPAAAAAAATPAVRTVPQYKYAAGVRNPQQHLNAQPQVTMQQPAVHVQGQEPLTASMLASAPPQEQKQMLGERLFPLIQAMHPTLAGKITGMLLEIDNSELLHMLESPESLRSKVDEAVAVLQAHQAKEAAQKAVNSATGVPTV
MT1-MMP act inh: blockers of MT1-MMP proenzyme processing, primary screen, HT1080 RFP-PRO-GFP cells, GFP/RFP fluorescence | Matrix metalloproteinase-14 (Homo sapiens), P50281 | GFP/RFP ratio fluorescence, overnight; percent of plate control window, DMSO zero | GFP/RFP ratio change, % at 20 µM | 360,000 compounds, 0.061% hits | AID 651647, 2012;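 active = GFP/RFP ratio change of at least 30% with cell ATP level not reduced by more than half and red fluorescence within 50% of control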; also: strong numbers were not always called active
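Read-out: GFP/RFP fluorescence ratio; Test system: RFP-PRO-GFP reporter HT1080 cells; Compound dosing: single-point 20 µM compound, 1% DMSO; Times: overnight compound exposure at 37 °C.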
HIV Env fusion: inhibitors of HIV-1 Env-driven cell-cell fusion, primary screen, HeLa-JRFL effector, CEM21 target cells, luciferase; inhibition, % at 12.3 µM; 360,000 compounds, 1.1% hits; AID 651610, 2012;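 active = mean replicate inhibition score of at least 50 and every replicate individually at or above 50; inconclusive = only one of the two criteria met; inactive = mean below 50 and not all replicates reaching 50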;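 also: 0% = plate neutral controls and 100% = maraviroc near 300 nM; one replicate is shown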
eIF4H inh: human eIF4H binding inhibitors, primary screen, translation initiation inhibitor project, biochemical, uHTS, fluorescence polarization. eIF4H fluorescence polarization binding assay. inhibition, % at 35 µM. 290,000 compounds, 0.94% hits;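 active = 50% or more with normal probe brightness, or confirmed in later tests; inconclusive = above 50% with abnormal brightness, or retests that disagree; inactive = below 50% or failed in later tests; about a fifth of its hits are not listed in these tables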;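 also: calls also rest on retests at 20 µM and on dose response follow-up; 0% = protein and probe with vehicle and 100% = probe without protein; strong numbers were not always called active; many hits fall short of the cut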
CSC inhib: cancer stem cell viability inhibitors, primary screen, luminescence | 300,000 compounds, 1.1% hits | inhibition, % at 7.5 µM | cancer stem cell-like cells viability | AID 2717, 2010;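 active = mean at 75% or more and at least half the replicates too; inconclusive = mean and replicates disagree; tested in HMLE shEcad cells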;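 also: 0% = median of negative and 100% = median of positive control wells; the first replicate is given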
UUG fidelity: modulators of yeast start codon fidelity, primary screen, whole organism, S. cerevisiae, single point, plate reader | S. cerevisiae UUG-firefly luciferase reporter, luminescence/redox ratio | 350,000 compounds, 0.13% hits | activity score, % at 18.7 µM | AID 602363, 2012;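 active = replicate mean at a twofold rise or more, about +100% in these data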;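 also: firefly luciferase made from a UUG start codon reports start codon fidelity; reporter light over untreated wells divided by growth signal over untreated wells; some hits fall short of that in this replicate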
Rce1 inh: yeast Rce1p protease inhibitors, primary screen, biochemical, fluorescence, cell-free homogeneous | AID 2563, 2010 | yeast membranes, quenched prenylated peptide cleavage fluorescence | 290,000 compounds, 0.27% hits | calls only | CAAX prenyl protease 2 (Saccharomyces cerevisiae (strain ATCC 204508 / S288c)), Q03530;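 active = fall in fluorescence gain of 50% or more versus controls, with final raw signal at or below 3038400; inconclusive = same 50% fall but final raw signal above 3038400; inactive = fall in fluorescence gain under 50%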;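 also: plate controls were neutral control wells for no effect and wells lacking membranes for full effect; tested at 10 µM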
Target sequence (Q03530 whole entry, looked up): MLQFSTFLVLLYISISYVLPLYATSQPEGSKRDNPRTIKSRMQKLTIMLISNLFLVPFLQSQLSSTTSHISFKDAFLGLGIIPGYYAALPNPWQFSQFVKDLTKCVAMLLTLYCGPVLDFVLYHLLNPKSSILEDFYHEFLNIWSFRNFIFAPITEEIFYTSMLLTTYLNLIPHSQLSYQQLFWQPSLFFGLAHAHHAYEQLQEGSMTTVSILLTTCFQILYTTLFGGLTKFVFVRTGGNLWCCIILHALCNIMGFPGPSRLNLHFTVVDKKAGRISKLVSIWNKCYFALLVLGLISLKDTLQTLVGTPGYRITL
eIF4H inh retest: also measured in eIF4H inh; calls as there; inhibition, %; compound at 20 µM; confirmation average;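 mean of two retest wells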
PABP FP inh retest: further read-out of PABP FP inh, marked with its call; inhibition, %; compound at 20 µM; confirmation repeats;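 mean of two retest wells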
MT1-MMP act inh RFP: also measured in MT1-MMP act inh; calls as there; RFP signal change, %; measured here: RFP expression control read;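 0 = vehicle wells; hits needed this value within 50% of zero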
The depositor's hits bear a star; i = inactive; ? = inconclusive; . = no result given; + = active, no number. This is a subset; rates above refer to the full screens.

SMILES	PABP FP inh	MT1-MMP act inh	MT1-MMP act inh RFP	HIV Env fusion	eIF4H inh	CSC inhib	UUG fidelity	Rce1 inh	others
CCn1cnc2c(Nc3cc(F)cc(F)c3)nc(C#N)nc21	.	12	-1	-42	.	-2	-9	.
COC(=O)N1CCCCC1c1cc(C(=O)Nc2cccc3c2CCCC3)no1 (stereo not drawn)	.	-2	-8	4	.	.	-4	.
O=C(COc1ccc(/C=N/NC(=O)CSCc2ccc([N+](=O)[O-])cc2)cc1)NCc1ccco1	0	-3	-4	-16	0	-1	.	i
CCCS(=O)(=O)N1CCN(C(=O)c2cccs2)CC1	0	-1	3	.	3	9	-11	i
O=C(c1ccc(F)cc1)N1CCN(C2CCCCC2)CC1	1	1	5	-11	14	1	-15	i
COc1ccc(S(=O)(=O)N2CCN(C)CC2)cc1NC(=O)c1ccccc1F	14	0	-1	-1	8	-9	-16	i
COc1ccc(CNCc2ccc([N+](=O)[O-])cc2)cc1OC	4	-5	1	-7	6	-7	-3	i
C=CCN(C(C(=O)OC)C(C)C)S(=O)(=O)CCNCc1ccccc1 (stereo not drawn)	.	1	4	?	.	.	-40	.
O=C(O)c1ccc2c(=O)n3c(nc2c1)/C(=C/c1cccc(O)c1)CC3	14	1	-1	-9	0	-4	-15	i
CCOc1ccc(-c2cc(C(=O)Nc3ccc(C)c(NS(C)(=O)=O)c3)[nH]n2)c(C)c1	.	-7	-23	33	.	.	-24	.
O=C(NCc1cccnc1)/C(=C\c1ccc(-c2ccc(Cl)c(Cl)c2)o1)S(=O)(=O)c1ccccc1	4	-23	-35	i	-3	113*	-5	i
O=c1c2ccccc2[nH]c(=S)n1Cc1cccs1	-2	-1	-5	8	0	-6	-26	i
COc1ccc(S(=O)(=O)N2CCCC2CNC(=O)C(=O)Nc2ccc(C)cc2)cc1 (stereo not drawn)	.	1	-6	-1	.	.	12	i
Cc1ccc(S(=O)(=O)n2nccc2-c2c(-c3ccc(Cl)cc3)noc2C)cc1	-7	-2	-19	19	-1	38	-11	i
O=C(Nc1ccccc1)c1ccccc1CSc1ccccc1	.	-1	-1	-18	.	-10	1	i
CC(NC(=O)COc1ccc(-c2ccccc2)cc1)C1CCCO1 (stereo not drawn)	4	1	-2	-1	-7	17	-15	i
NC(=O)COn1c(SCC(N)=O)nc2ccccc2c1=O	1	-1	-1	-1	4	-4	-7	i
Cc1ccccc1S(=O)(=O)Cc1ccc(C(=O)N2CCN(c3ncccn3)CC2)o1	-5	-1	2	.	4	-2	-4	i
C/C(CC(=O)Nc1ccc([N+](=O)[O-])cc1)=N\NC(=O)c1ccccc1O	31	6	-1	6	82*	66	-5	i	eIF4H inh retest=66*;PABP FP inh retest=33
O=C(O)Cn1cc(/C=N/Nc2ccc([N+](=O)[O-])cn2)c2ccccc21	10	-1	2	11	-12	4	-16	i
O=C1c2ccccc2-c2nnc(-c3ccc(O)cc3)cc21	11	4	10	-15	12	33	.	i
CCc1ccc(-c2cc(C)no2)cc1S(=O)(=O)N1CCN(C(=O)c2ccco2)CC1	0	-1	0	2	2	26	-1	i
COc1ccc2nc(NC(=O)c3ccco3)sc2c1	7	7	6	-56	-7	23	-62	i
COc1ccc(C(CCNCc2ccc(OC)c(OC)c2)c2ccc(F)cc2)cc1 (stereo not drawn)	-8	3	2	14	-8	-10	-8	i
Cc1ccc(-c2nnc(N3CCN(C(=O)CN4CCOCC4)CC3)c3ccccc23)cc1	6	-1	4	-87	-9	-2	-16	i
Cc1ccc(S(=O)(=O)N2CCN(C(=O)CN3CCOCC3)C2)cc1	1	0	5	.	0	0	-12	i
CCOC(=O)C1(Cc2ccccc2C)CCCN(C(=O)c2ccoc2)C1 (stereo not drawn)	-2	-5	-5	-38	-4	16	4	i
COc1ccc(CN2C(=O)c3ccccc3C2C(=O)NC2CCCC(C)C2C)c(OC)c1 (stereo not drawn)	3	-4	-2	15	-3	.	6	i
COc1ccc(N2C(=O)CSC2c2ccc(F)c(F)c2)cc1 (stereo not drawn)	4	-3	1	16	8	.	-12	i
O=c1[nH]c(CN2CCN(S(=O)(=O)/C=C/c3ccccc3)CC2)nc2ccccc12	-6	-5	-4	-5	-3	1	-4	i

Entries listed so far that contain an NH in an aromatic ring (three):
SMILES	PABP FP inh	MT1-MMP act inh	MT1-MMP act inh RFP	HIV Env fusion	eIF4H inh	CSC inhib	UUG fidelity	Rce1 inh	others
CCOc1ccc(-c2cc(C(=O)Nc3ccc(C)c(NS(C)(=O)=O)c3)[nH]n2)c(C)c1	.	-7	-23	33	.	.	-24	.
O=c1c2ccccc2[nH]c(=S)n1Cc1cccs1	-2	-1	-5	8	0	-6	-26	i
O=c1[nH]c(CN2CCN(S(=O)(=O)/C=C/c3ccccc3)CC2)nc2ccccc12	-6	-5	-4	-5	-3	1	-4	i

Following part
SMILES	PABP FP inh	MT1-MMP act inh	MT1-MMP act inh RFP	HIV Env fusion	eIF4H inh	CSC inhib	UUG fidelity	Rce1 inh	others
COc1cccc(N(CC(=O)N2CCN(C)CC2)S(=O)(=O)c2ccccc2)c1	4	-3	3	.	-6	-5	-11	i
CCn1c(SCC(=O)N2CCCc3ccccc32)nnc1-c1ccoc1C	-4	4	-11	-39	-5	-18	10	i
O=C(O)CCNS(=O)(=O)c1ccccc1	-2	8	5	.	-9	20	-22	i
Cc1oc2ccc(OS(C)(=O)=O)cc2c1C(=O)OC(C)C	19	1	0	-29	-12	-14	.	i
COc1ccc(NS(=O)(=O)c2cccc(C(=O)NNC(=O)CNC(=O)c3ccc(C)cc3)c2)cc1	.	1	1	68*	.	.	-3	i
Cc1cc(C(=O)N2CCCC(N3CCN(Cc4ccc5c(c4)OCO5)CC3)C2)n[nH]1 (stereo not drawn)	-7	2	4	2	-9	-6	-18	i
COc1cc(/C=C2\C(=N)N3N=C(S(C)(=O)=O)SC3=NC2=O)ccc1OCCOc1ccc(C)cc1	8	3	-7	0	-1	20	-18	i
Cc1ccccc1-c1nnn(CC(=O)Nc2ccc3c(c2)OCO3)n1	1	-2	3	5	5	-8	.	i
O=C(C1CC1)N1CCc2cc(Br)cc(S(=O)(=O)NCc3ccco3)c21	-3	2	3	-35	-6	-5	-16	.
CC1CCN(C(=O)c2ccc(N3C(=O)C4CCC(C)CC4C3=O)cc2)CC1 (stereo not drawn)	-16	2	0	-9	-8	17	.	i
O=S1(=O)C=CC(Nc2ccccc2)C1 (stereo not drawn)	-7	2	0	-22	-2	8	-23	i
Oc1cccc(/C=N/n2c(C3CCCCC3)n[nH]c2=S)c1	12	-7	-6	2	0	-12	-13	i
CCOC(=O)CSc1n[nH]c(-c2cccnc2)n1	5	2	2	-59	6	-9	-23	i
O=C(O)c1ccc(CNC(=O)c2ccc(C(F)(F)F)cc2)cc1	13	2	3	10	-7	3	.	i
Cc1onc(-c2ccccc2Cl)c1C(=O)OCC(=O)c1c(N)n(C)c(=O)n(C)c1=O	-2	-4	-2	-5	-6	-5	.	i
Cc1ccc(OCC(=O)Nc2nnc(-c3ccco3)s2)cc1	-2	4	3	-2	18	14	-16	i
CCOCCCNC(=O)c1cc2sc(Cl)cc2n1CC	-3	4	-2	.	6	.	-5	.
Cc1ccc(CN2CCN(C(=O)c3cccc4ccccc34)CC2)cc1	8	-2	-14	31	2	-2	1	i
CCNC(=O)CSc1nc2ccccc2c(=O)n1-c1cc(OC)ccc1OC	-7	4	9	0	6	-15	-5	i
Cc1cc(C(=O)OCC(=O)N2CC(C)OC(C)C2)c(C)n1-c1ccccc1 (stereo not drawn)	.	0	-2	50	.	2	-13	.
CC1CCCN(C(=O)CNC(=O)Cn2ccc3ccccc3c2=O)C1 (stereo not drawn)	7	1	5	2	-5	1	-33	i
Cc1nnc(N/N=C/c2cccs2)[nH]c1=O	2	-3	4	13	-7	-2	.	i
CN(Cc1ccc(Cl)cc1)C(=O)CCl	-11	-3	-6	17	1	24	-15	i
O=C(CCc1nc2ccccc2c(=O)[nH]1)OCc1ccc(Cl)cc1Cl	0	2	5	-7	-6	-6	.	i
O=C(Cn1c(CC(=O)N2CCOCC2)nc2ccccc21)Nc1ccc2c(c1)OC(F)(F)O2	-1	0	0	.	-5	-14	4	i
N#Cc1c(NCc2ccccc2)ccnc1NCc1cccnc1	-2	.	.	107*	-2	-5	-16	i
O=[N+]([O-])c1ccc(Cl)c(/C=N/N2CCN(Cc3ccccc3)CC2)c1	-13	4	6	13	-7	17	-17	i
C=CCn1c(COc2cccc3cccnc23)nnc1SCC(=O)OC	-7	0	4	10	-7	-23	-12	.
O=C(O)c1ccc(/C=C2\SC(=S)N(NC(=O)c3ccccc3[N+](=O)[O-])C2=O)cc1	25	3	4	-11	-3	-10	-14	i
CCCCOC(=O)c1ccc(NC(=O)C(=O)NCc2ccco2)cc1	-4	.	.	-11	3	3	.	i
CN(/C=C1/C(=O)CNC1=O)CCO	-10	-2	1	-3	-7	-1	.	i
Cc1cc(N2CCCCC2)nc(-c2ccc(Br)cc2)n1	4	5	2	6	-2	-5	.	i
CCCP(=O)(CC(=O)O)c1ccccc1 (stereo not drawn)	5	3	6	.	1	-13	-8	.
CCN1CCN(S(=O)(=O)c2ccc(Cl)c(C(=O)NCc3ccco3)c2)CC1	.	-4	-2	0	.	-4	.	i
COc1ccc(CCNS(=O)(=O)c2cnc(Cl)c(Br)c2)cc1OC	-5	-3	-4	-10	0	-14	-11	i
CC#CCN(Cc1ccco1)C(=O)C1CCC(=O)N(Cc2ccccc2F)C1 (stereo not drawn)	-11	2	1	7	-8	-2	-17	.
CCOC(=O)C1=C(O)/C(=C/c2cc(OC)c(OC)c(OC)c2)SC1=Nc1ccc(OC)cc1	8	-2	-5	.	-13	-5	.	i
NC1=NC(=Nc2cccc(S(=O)(=O)N3CCOCC3)c2)c2ccccc21	-7	-2	1	-10	1	14	-9	i
N/C(=N\OC(=O)/C=C/c1ccccc1)c1ccncc1	-5	3	2	-38	-1	-9	-25	i
OC(COC(c1ccccc1)c1ccccc1)CN1CCOCC1 (stereo not drawn)	12	-1	-1	-5	14	-8	.	i
COc1ccc(C2c3c(C)nn(-c4ccccc4)c3NC(=O)N2c2ccccc2)cc1 (stereo not drawn)	-16	2	-2	-11	-16	0	.	i
Cc1ccc2cc(C#N)c(SCC(=O)N3CCCc4ccccc43)nc2c1C	15	-6	-2	.	4	16	.	i
S=C(NC1CCCCC1)N1CCCCC1	8	0	0	6	9	-4	.	i
Cc1ccc(NC(=O)N(Cc2ccco2)Cc2cc3cc(C)cc(C)c3nc2Cl)cc1	24	.	.	.	-4	.	.	i
O=C(Nc1cnn(Cc2ccc(F)cc2)c1)c1cc2nc(-c3ccco3)cc(C(F)(F)F)n2n1	0	-1	-1	.	-2	8	-43	i
CCOC(=O)c1ccc(COC(=O)c2ccc(-c3nnc(-c4ccccc4)o3)cc2)o1	.	2	3	.	.	12	-7	i
CC(C)C(=O)Nc1c2c(nc3ccccc13)N(C)CC2	-8	2	-2	-28	3	-10	-12	+
